Screens: PubChem, several laboratories
eIF4H FP inh – inhibitors of RNA binding by human eIF4H. eIF4H fluorescence polarization binding assay. inhibition, % at 35 µM. Q15056. 290,000 compounds, 0.94% hits;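 active = 50% or more with normal probe brightness, or confirmed in later tests; inconclusive = above 50% with abnormal brightness, or retests that disagree; inactive = below 50% or failed in later tests; about a fifth of its hits are not listed in these tables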;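 also: calls also rest on retests at 20 µM and on dose response follow-up; 0% = protein and probe with vehicle and 100% = probe without protein; strong numbers were not always called active; many hits fall short of the cut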
Rce1 inh – blocks yeast Ras-converting enzyme | Q03530 | yeast membranes, quenched prenylated peptide cleavage fluorescence | calls only | 290,000 compounds, 0.27% hits | AID 2563;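 active = fall in fluorescence gain of 50% or more versus controls, with final raw signal at or below 3038400; inconclusive = same 50% fall but final raw signal above 3038400; inactive = fall in fluorescence gain under 50%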;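 also: plate controls were neutral control wells for no effect and wells lacking membranes for full effect; tested at 10 µM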
Target sequence (Q03530 whole entry, looked up): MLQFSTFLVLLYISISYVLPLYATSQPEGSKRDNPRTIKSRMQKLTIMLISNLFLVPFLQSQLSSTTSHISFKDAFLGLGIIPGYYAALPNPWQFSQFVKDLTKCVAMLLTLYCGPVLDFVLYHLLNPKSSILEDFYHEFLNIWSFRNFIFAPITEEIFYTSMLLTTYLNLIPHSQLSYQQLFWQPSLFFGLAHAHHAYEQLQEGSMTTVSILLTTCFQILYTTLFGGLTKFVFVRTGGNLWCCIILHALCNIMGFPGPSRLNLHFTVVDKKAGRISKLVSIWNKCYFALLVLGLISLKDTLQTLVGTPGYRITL
Yeast UUG start – modulators of start codon recognition fidelity in yeast | S. cerevisiae UUG-firefly luciferase reporter, luminescence/redox ratio | activity score, % at 18.7 µM | 350,000 compounds, 0.13% hits | AID 602363;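 active = replicate mean at a twofold rise or more, about +100% in these data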;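 also: firefly luciferase made from a UUG start codon reports start codon fidelity; reporter light over untreated wells divided by growth signal over untreated wells; some hits fall short of that in this replicate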
CSC inhib – cancer stem cell inhibition | cancer stem cell-like cells viability, luminescence | inhibition, % at 7.5 µM | 300,000 compounds, 1.1% hits | AID 2717;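 active = mean at 75% or more and at least half the replicates too; inconclusive = mean and replicates disagree; tested in HMLE shEcad cells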;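 also: 0% = median of negative and 100% = median of positive control wells; the first replicate is given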
PABP FP inh – blocks human PABP binding to poly(A) RNA | inhibition, % at 35 µM | fluorescence polarization | 290,000 compounds, 1% hits;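 active = 50% or more with normal probe brightness, or confirmed in later tests; inconclusive = above 50% with abnormal brightness, or retests that disagree; inactive = below 50% or failed in later tests; about a fifth of its hits are not listed in these tables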;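 also: calls also rest on retests at 20 µM and on dose response follow-up; controls were probe without protein and protein plus probe with vehicle; some compounds called inactive have numbers as strong as hits; many hits fall short of the cut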
Target sequence (P11940 whole entry, looked up): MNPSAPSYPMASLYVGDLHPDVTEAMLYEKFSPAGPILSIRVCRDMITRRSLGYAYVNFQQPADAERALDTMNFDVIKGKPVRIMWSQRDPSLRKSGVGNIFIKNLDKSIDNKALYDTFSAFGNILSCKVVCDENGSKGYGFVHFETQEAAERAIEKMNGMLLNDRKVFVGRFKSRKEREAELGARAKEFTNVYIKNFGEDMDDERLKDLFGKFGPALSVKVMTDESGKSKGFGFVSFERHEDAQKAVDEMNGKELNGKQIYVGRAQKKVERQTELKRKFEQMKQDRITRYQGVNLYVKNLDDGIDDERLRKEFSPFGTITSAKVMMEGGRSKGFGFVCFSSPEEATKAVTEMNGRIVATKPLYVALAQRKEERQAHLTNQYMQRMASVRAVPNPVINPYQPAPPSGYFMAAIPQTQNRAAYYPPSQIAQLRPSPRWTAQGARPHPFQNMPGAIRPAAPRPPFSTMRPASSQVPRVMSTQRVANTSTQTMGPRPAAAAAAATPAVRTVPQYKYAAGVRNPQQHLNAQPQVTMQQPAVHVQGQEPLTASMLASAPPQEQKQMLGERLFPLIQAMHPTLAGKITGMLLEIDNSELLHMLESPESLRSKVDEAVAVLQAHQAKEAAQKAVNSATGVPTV
MT1-MMP act inh – blocks activation of human MT1-MMP; HT1080 RFP-PRO-GFP cells, GFP/RFP ratio fluorescence, overnight; percent of plate control window, DMSO zero; P50281; GFP/RFP ratio change, % at 20 µM; AID 651647; 360,000 compounds, 0.061% hits;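 active = GFP/RFP ratio change of at least 30% with cell ATP level not reduced by more than half and red fluorescence within 50% of control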; also: strong numbers were not always called active
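Assay system: RFP-PRO-GFP reporter HT1080 cells; read-out basis: GFP/RFP fluorescence ratio; benchmarks: DMSO wells and RFP-L50D-GFP cells; doses: 20 µM single dose, 1% DMSO; schedule: overnight cell settling, then overnight compound exposure, 37 °C, 5% CO2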
Env fusion inh – blocks HIV Env-driven cell-cell fusion | HeLa-JRFL Env/CEM21 cell fusion, luciferase | inhibition, % at 12.3 µM | 360,000 compounds, 1.1% hits | AID 651610;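 active = mean replicate inhibition score of at least 50 and every replicate individually at or above 50; inconclusive = only one of the two criteria met; inactive = mean below 50 and not all replicates reaching 50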;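 also: 0% = plate neutral controls and 100% = maraviroc near 300 nM; one replicate is shown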
MT1-MMP act inh RFP – also measured in MT1-MMP act inh; calls as there; RFP signal change, %; measured here: RFP expression control read;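 0 = vehicle wells; hits needed this value within 50% of zero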
* = called active by the depositor; i = inactive; ? = inconclusive; / = no result given. The order is random; overall some 2.9% were active at least once.

Compound	eIF4H FP inh	Rce1 inh	Yeast UUG start	CSC inhib	PABP FP inh	MT1-MMP act inh	MT1-MMP act inh RFP	Env fusion inh
FC(F)Oc1ccc(NC(=S)NCc2ccccc2)cc1	2.5	i	/	4.6	26.3	6.2	1.4	-4.8
CCN(CC)CCn1c(NC(=O)c2ccc(C)cc2)nc2ccccc21	-1.8	i	-14.5	1.9	2.7	6.8	7.2	-23.3
COc1ccc(/C=N/NC(=O)C(C)n2cnc3ccccc3c2=O)cc1OC (stereo not given)	-8.7	i	-13.8	-15.0	-1.8	6.5	4.6	4.8
O=C(NCC(c1cccs1)N1CCOCC1)c1ccc(Cl)c(S(=O)(=O)N2CCOCC2)c1 (stereo not given)	-6.9	i	/	8.1	0.1	-1.5	-2.5	0.6
Cc1ccc(C(=O)Nc2nnc(SCC(=O)N3CCCc4ccccc43)s2)cc1	-1.9	i	/	9.5	-2.0	1.1	3.7	-70.9
Cc1ccc(C)c(Oc2coc3cc(OC(=O)c4cccs4)ccc3c2=O)c1	/	i	-18.3	/	/	0.5	4.0	/
COc1ccccc1NC(=O)Nc1nc(CC(=O)Nc2ccc(F)c(F)c2)cs1	/	i	-10.8	14.0	/	4.2	-10.8	12.8
C=CCNC(=S)N1CCC(Cc2ccccc2)CC1	2.9	i	-13.8	-4.9	2.0	0.1	-0.7	10.1
CCCOc1cccc(OCC(=O)Nc2nc3ccccc3[nH]2)c1	1.1	i	/	17.1	-7.4	4.6	5.2	4.1
CN(CC(=O)Nc1cccc(F)c1)C(=O)c1cn(-c2ccccc2)nc1-c1cccs1	-1.2	i	-2.0	11.0	-10.0	-0.6	-2.2	-40.9
c1ccc(-n2cnnc2SCc2cn3ccccc3n2)cc1	1.4	i	-8.4	-9.8	-0.1	3.9	2.0	-48.6
Cc1cc2c(s1)c1cnn(Cc3ccccc3F)c(=O)c1n2C	-1.9	i	-1.4	-9.1	-19.4	-1.9	-9.9	17.8
COc1ccc(NS(=O)(=O)c2ccc(N3C(=O)CCC3=O)cc2)cc1	-2.1	i	-12.7	-5.8	-2.8	2.2	1.0	-42.1
NC(=O)c1ccc(Oc2cccc3cccnc23)c([N+](=O)[O-])c1	39.0	i	-6.8	-0.3	36.4	-7.2	3.0	-12.0
COc1ccc(CCCNC(=O)C2Cc3c(-c4ccc(NC(C)=O)cc4)ccnc3O2)cc1 (stereo not given)	/	/	6.8	/	/	1.9	-3.6	-1.4
Cc1cc(NC(=O)CSc2nc(C(C)C)nc3ccccc23)no1	1.0	i	-13.8	38.8	3.5	-5.2	-9.1	-16.1
Cc1ccc(C)c(NC(=O)C2CCCN2/C=C/C(=O)C(F)(F)F)c1 (stereo not given)	-3.1	i	-20.0	-7.8	-3.0	6.4	13.3	-18.6
O=C1Nc2ccccc2SC1c1ccccc1 (stereo not given)	-0.4	i	-4.5	-8.4	5.2	0.7	-1.0	22.9
O=C(O)c1ccc(-n2nc(C(F)(F)F)c3c2-c2ccoc2CC3)cc1	-2.1	i	-9.0	0.2	14.8	-0.5	-2.3	-44.9
Cc1ccc2[nH]c(=O)c(CN(Cc3ccco3)C(=O)CN3CCCC(C)C3)cc2c1 (stereo not given)	-6.0	i	/	-5.7	-16.7	0.0	0.9	-1.2

Two entries from above in a different format:
Each structure is followed by: eIF4H FP inh	Rce1 inh	Yeast UUG start	CSC inhib	PABP FP inh	MT1-MMP act inh	MT1-MMP act inh RFP	Env fusion inh
- COc1ccc(/C=N/NC(=O)C(C)n2cnc3ccccc3c2=O)cc1OC (stereo not given)
 : -8.7	i	-13.8	-15.0	-1.8	6.5	4.6	4.8
- O=C(NCC(c1cccs1)N1CCOCC1)c1ccc(Cl)c(S(=O)(=O)N2CCOCC2)c1 (stereo not given)
 : -6.9	i	/	8.1	0.1	-1.5	-2.5	0.6

Four entries drawn at random from those above:
Compound	eIF4H FP inh	Rce1 inh	Yeast UUG start	CSC inhib	PABP FP inh	MT1-MMP act inh	MT1-MMP act inh RFP	Env fusion inh
Cc1cc2c(s1)c1cnn(Cc3ccccc3F)c(=O)c1n2C	-1.9	i	-1.4	-9.1	-19.4	-1.9	-9.9	17.8
CCCOc1cccc(OCC(=O)Nc2nc3ccccc3[nH]2)c1	1.1	i	/	17.1	-7.4	4.6	5.2	4.1
Cc1ccc2[nH]c(=O)c(CN(Cc3ccco3)C(=O)CN3CCCC(C)C3)cc2c1 (stereo not given)	-6.0	i	/	-5.7	-16.7	0.0	0.9	-1.2
O=C(NCC(c1cccs1)N1CCOCC1)c1ccc(Cl)c(S(=O)(=O)N2CCOCC2)c1 (stereo not given)	-6.9	i	/	8.1	0.1	-1.5	-2.5	0.6

The list continues.
Compound	eIF4H FP inh	Rce1 inh	Yeast UUG start	CSC inhib	PABP FP inh	MT1-MMP act inh	MT1-MMP act inh RFP	Env fusion inh
CN1CCN(C(=O)C(C(=O)c2ccc(F)cc2)n2ccccc2=O)CC1 (stereo not given)	-9.1	i	17.6	-1.1	4.9	4.3	7.3	-48.0
CC(C)(C)C(=O)Nc1ccc(N2CCCC2)cc1	2.7	i	/	-5.3	5.9	-4.2	2.6	/
CCCC(=O)N(c1ccc2oc(C)c(C(C)=O)c2c1)S(=O)(=O)c1ccc(C(=O)O)cc1	-6.8	i	-15.2	-2.7	5.2	-1.8	2.0	2.6
O=C1[C@H](Oc2ccccc2)[C@@H](c2ccccc2)N1c1ccncc1	/	/	-3.1	/	/	-6.5	-8.5	5.5
Cc1cccc(NC(=O)CSc2nnc3ccc(-c4cccnc4)nn23)c1	/	/	-12.9	/	/	2.3	0.9	9.5
O=C(CNC(=O)c1ccccc1Cl)N/N=C/c1ccc([N+](=O)[O-])s1	12.1	i	/	-8.6	3.1	-1.6	-2.8	-6.7
COC(=O)C1C(c2ccc(OC)cc2)NC(=O)NC1(O)C(F)(F)Cl (stereo not given)	-11.9	i	-5.5	-9.5	0.5	-2.0	-1.1	15.4
CC(=O)c1c(C)[nH]c(C(=O)OCc2ccccc2F)c1C	-2.5	i	/	-1.8	3.2	-14.3	-22.8	32.7
CCCC(c1nnnn1C(C)(C)CC)N1CCN(C2CCCC2)CC1 (stereo not given)	-2.4	/	-41.4	4.4	2.2	-4.4	0.3	/
C(=N\N1CCN(c2ccccn2)CC1)/C1=C(N2CCOCC2)C(=C/c2ccccc2)/CC1	4.4	i	-8.8	-3.7	0.9	-7.3	-6.7	13.1
CCOC(=O)C1=C(c2ccccc2)Nc2nc(C)nn2C1c1cccc(OC)c1OC (stereo not given)	2.9	i	-18.2	4.4	0.4	1.2	1.2	0.9
CCN1C(=O)[C@@H]2[C@H](C1=O)[C@@H]1C(=O)Nc3ccccc3C(=O)N1[C@@H]2c1ccc(OC)cc1	/	i	2.3	-12.9	/	-2.0	2.6	0.6
CC(C)=C1C2CCC1C1C(=O)N(c3ccc(C)c(C)c3)C(=O)C21 (stereo not given)	-4.0	i	/	-12.3	-8.7	-2.0	0.7	0.9
CCN(CC)S(=O)(=O)c1ccc(N/N=C/c2ccccc2OCC(=O)O)c([N+](=O)[O-])c1	-10.5	i	-4.0	6.0	-1.8	5.7	-1.1	2.9
COc1cccc(SCc2noc(C(=O)NCc3ccccc3)c2C(=O)NCc2ccccc2)c1	7.6	i	-7.3	13.0	8.1	3.2	1.7	-6.4
CC(C)C[C@H](NC(=O)NCCc1ccc(Cl)cc1)C(=O)O	-5.2	i	-13.6	10.0	-7.0	-1.9	2.9	/
O=C(CN(C(=O)c1ccccc1Cl)N1C(=O)CCCC1=O)c1ccc(Cl)cc1	2.1	i	/	-7.8	?	-0.6	4.2	-0.9
CC(C)CNC(=O)NC(=O)COc1c(F)c(F)cc(F)c1F	-13.2	i	-15.2	-14.9	-5.3	4.7	9.2	/
CN1CCN(C(=O)CCC(=O)c2ccc(F)cc2)CC1	7.4	i	-4.2	-8.5	-3.0	-4.6	-1.7	/
COc1cc(C(=O)N2CCN(C(=O)C(Cc3cc(C)ccc3C)NC(C)=O)CC2)cc(OC)c1OC (stereo not given)	-2.2	i	16.9	-5.2	-6.9	-3.2	-1.6	-12.7
CCOC(=O)C1=C(C#N)C(C(=O)OCC)c2ncccc21 (stereo not given)	/	/	-11.5	/	/	-4.8	-2.4	-17.3
CCN(CC)C(=O)c1ccc2sc([C@H]3C[C@H](O)[C@@H](CO)O3)nc2c1	/	/	-18.2	/	/	-1.1	4.0	-3.9
CC(C)CNC(=S)NNC(=O)CC(C)O (stereo not given)	3.5	i	/	-11.3	6.4	2.1	4.9	6.8
O=C(COC(=O)c1cc(S(=O)(=O)N2CCOCC2)ccc1F)NC1CC1	/	/	-2.2	-6.9	/	1.1	-0.9	/
COc1cc(OC)cc(C(=O)N2CCN(C3CCC(C)CC3)CC2)c1 (stereo not given)	/	/	-7.7	/	/	3.4	4.8	6.3
Cc1ccc([N+](=O)[O-])cc1-c1ccc(/C=N/NC(=O)CN2CCOCC2)o1	-8.1	i	/	-4.0	12.6	2.4	-0.2	-12.1
O=C(CN1CCN(C(=O)c2ccco2)CC1)Nc1cc(S(=O)(=O)N2CCCC2)ccc1Cl	/	/	-8.0	/	/	0.4	-5.8	11.4
Cn1nc([N+](=O)[O-])c2c(-c3nc4ccccc4s3)c(N)n(C3CCCCC3)c2c1=O	13.6	i	-2.0	23.8	-1.8	3.8	9.6	10.6
COC(=O)CNC(=O)c1ccc(C)s1	8.4	i	-14.5	-2.7	8.6	-2.0	4.1	-24.0
CC(C)c1ccc(NC(=O)CN2C(=O)COc3ccc(S(=O)(=O)N4CCOCC4)cc32)cc1	/	i	-10.6	-14.5	/	/	/	0.3
Cc1ccc(CNC(=O)CCC2CCCN(Cc3ccc4cccc(F)c4n3)C2)o1 (stereo not given)	-8.4	/	/	11.4	-1.9	/	/	13.2
CC(C)=C1C2CCC1C1C(=O)N(c3ccc4c(c3)OCO4)C(=O)C21 (stereo not given)	-4.8	i	-12.8	-10.2	21.7	-10.3	4.1	0.0
CN(C)c1ccnc2sc(C(=O)c3ccccc3)c(N)c12	4.7	i	/	51.7	-3.9	-1.4	1.3	-42.6
CCSC1=C(C#N)C2(CCCCC2)C(C#N)=C(N)N1	-8.6	i	-18.4	-7.4	-7.3	1.4	-8.2	/
Cc1nnc(NC(=O)c2ccc(F)c(S(=O)(=O)N3CCOCC3)c2)s1	/	/	-19.2	7.6	/	-0.5	2.7	-13.2
c1ccc2nc(-c3ccc(N4CCOCC4)cc3)ccc2c1	-3.1	i	-15.0	/	1.6	1.5	3.4	-252.1
CC(C)c1cc(NCc2ccccn2)n2c(nc3ccccc32)c1C#N	25.5	i	/	1.9	-3.6	-8.5	-10.1	-18.3
COc1ccc2nc(NC3=NC(C(=O)Nc4ccc(C)cc4)CC(=O)N3)nc(C)c2c1 (stereo not given)	-6.3	i	/	-0.1	-5.5	/	/	/
CCOCCCNC(=O)NC12CC3CC(CC(C3)C1)C2	2.9	i	-7.9	-11.8	0.6	2.8	2.0	/
CCCCn1c(N)c(N(CC(C)C)C(=O)c2ccc(S(=O)(=O)N3CCC(C)CC3)cc2)c(=O)[nH]c1=O	/	i	/	/	/	2.0	2.1	-1.3
CCCCOc1ccc(-c2cnc3ccccc3n2)cc1	-17.7	i	/	/	-2.4	-0.9	-3.9	-215.9
CC12CC(NC(=O)N1c1cccc(C(=O)N3CCN(c4ccccc4)CC3)c1)c1ccccc1O2 (stereo not given)	-0.3	i	22.2	-6.1	-3.2	0.7	-3.8	-74.9
COc1ccccc1NC(=O)c1cccc(N2C(=O)C3C4C=CC(C4)C3C2=O)c1 (stereo not given)	-13.2	i	-0.6	6.1	0.6	3.5	2.6	-1.7
